MIN6 prolif = inducers of MIN6 beta-cell proliferation, primary screen, ATP luminescence, uHTS; MIN6 cells proliferation, ATPlite luminescence, 48 h; cells starved in 0.2% serum; 100% = growth in 10% serum; proliferation, % at 10 µM; actives 0.29% (n = 330,000);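 active means compounds whose signal lies at least 3.5 SD above the mean of all wells on their plate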;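 further: 0% = DMSO-treated cells in low-serum medium and 100% = 10% serum control; some compounds called inactive have numbers as strong as hits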
APJ antag = antagonists of human apelin receptor APJ, primary screen, CHO-K1 cells, beta-arrestin complementation, luminescence; P35414; AID 2521, 2010; inhibition, % at 20 µM; actives 0.32% (n = 330,000);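 active means inhibition above about 40% at 20 µM, limit read from the data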;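 further: cells challenged with 10 nM apelin-13 agonist together with compound; plate controls were apelin-13 plus DMSO wells for no effect and DMSO wells lacking apelin-13 for full effect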
APJ agonist = agonists of human apelin receptor APJ, primary screen, CHO-K1 cells, PathHunter beta-arrestin, luminescence; P35414; 0% DMSO wells, 100% apelin; activation, % at 20 µM; actives 0.11% (n = 330,000); AID 2520, 2010;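 active means activation more than six SD over the plate average, tested at 20 µM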;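 further: 0% = DMSO alone and 100% = apelin-13 at 10 nM; some results filed as inactive read as strong as hits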
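Test system: CHO-K1 APJ beta-arrestin complementation cell line | Compound: Single test compound dose, 20 µM final, 1% DMSO | Incubation: Compound 90 min 25 °C, reagent 1 h | Measured by: beta-gal luminescence | Read-out basis: APJ–arrestin association signal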
GRIN3A LBD mod = binders of NR3A ligand-binding domain, primary screen, biophysical, differential scanning fluorimetry, uHTS; AID 1259313, 2017; actives 2.5% (n = 340,000); NR3A LBD differential scanning fluorimetry, Tm shift; 0% = protein alone, 100% = glycine-bound protein; Tm shift relative to glycine control, % at 25 µM; Glutamate receptor ionotropic, NMDA 3A (GRIN3A) ligand-binding domain;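 active means melting temperature shift of at least 10% of the positive control shift, at one fixed dose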
* marks the source's active call; other numbers are inactive results; & = joins results of further samples. Not all compounds are listed; the hit share may differ from the screen's.

entry | SMILES | MIN6 prolif | APJ antag | APJ agonist | GRIN3A LBD mod
1 | O=S(=O)(c1ccc2nc(SCc3cccc(Cl)c3)[nH]c2c1)N1CCOCC1 | -1 | -6 | 1 | -3
2 | COc1ccc(/C(N)=N/OC(=O)CSc2ccccc2)cc1 | -1 | 10 | 2 | 2
3 | O=C(O)COCCN1CCN(C(c2ccccc2)c2ccc(Cl)cc2)CC1 (stereo not drawn) | 0 | 6 | -4 | -1
4 | N[C@@H](Cc1cc(I)c(Oc2ccc(O)c(I)c2)c(I)c1)C(=O)O | -7&-3 | 6&5 | 3&0 | -5&-15
5 | O=C(CSc1ncnc2ccccc12)NCc1ccc2c(c1)OCO2 | 7.7* | 11 | -1 | -1
6 | COc1cc(S(=O)(=O)n2c(C)nc3ccccc32)ccc1F | -1 | -9 | 1 | -1
7 | Cc1nc2ccccc2n1S(=O)(=O)c1ccc(F)cc1 | 0 | 7 | 2 | 2
8 | Cc1ccc2c(CC(=O)N3CCN(S(=O)(=O)c4ccc5c(c4)OCCO5)CC3)coc2c1 | 1 | 1 | -1 | 1
9 | O=C(O)Cn1nc(C(F)(F)F)c2c1CCCCC2 | -4 | -8 | 4 | 0
